PK Bst – Pyruvate Kinase | partly purified Bacillus stearothermophilus pyruvate kinase, luminescence ATP production; ribose 5-phosphate activator present at AC10 | Potency, µM | 51,000 compounds, 1.2% hits; in the data active means potency below about 11 µM; inconclusive means mostly about 12 µM to 25 µM; inactive means weaker than that;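 the screen sought inhibitors and activators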;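 note: potency is the fitted concentration of half-maximal effect; scaled between full activation by ribose 5 phosphate and full inhibition by luteolin; about four in five hits inhibit and the cells do not say which; series up to 57 µM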
YjeE inh – qHTS Assay for Inhibitors of YjeE | purified YjeE, fluorescence polarisation of a bound ADP probe | Potency, µM | 71,000 compounds, 0.05% hits | AID 605, 2007; active = well fitted falling curve; inconclusive = weaker or top-dose-only fall, or a rising curve; inactive = flat or poorly fitted curve;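 note: top concentration of the series not given in the record; excess ADP was the control for the full effect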
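Fluorescence polarization of a BODIPY Texas Red–ADP probe (2 uM) bound to purified YjeE (10 uM) was read after 15 min room-temperature incubation with compounds. Loss of polarization marks inhibitors; ADP serves as titrated control.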
* = called active by the depositor; i = inactive; / = no result given.

Below each compound – PK Bst, YjeE inh
COc1ccccc1-n1nc(C(=O)Nc2ccc3c(c2)OCO3)c2ccccc2c1=O
  >57, i
CN(C)Cc1nc2ccccc2c(=O)n1Cc1nc(C(C)(C)C)cs1
  >57, i
O=C(O)[C@H](Cc1ccccc1)N1C(=O)c2ccccc2C1=O
  /, i
O=C(Nc1ccccc1N1CCCCC1)c1cccs1
  >57, i
COc1cccc(C2CC(c3ccccc3)Nc3nc(N)nn32)c1 (configuration not stated)
  /, i
Nc1ccccc1SCc1cn2cccnc2n1
  /, i
CCOC(=O)CSc1nc(-c2ccc(OC)cc2)ns1
  /, i
COCc1nnc(NC(=O)CCc2ccccc2)s1
  >57, i
Cc1c(-c2nc(N)nc(Nc3ccc(F)cc3)n2)oc2ccccc12
  >57, i
Cc1ccc(NC(=O)C2CCCN(S(=O)(=O)c3cnc[nH]3)C2)cc1F (configuration not stated)
  /, i
O=C(NCCCN1CCOCC1)C1CC(=O)N(CCc2ccccc2)C1 (configuration not stated)
  >57, i
Cc1ccc(OCc2nc(-c3ccccn3)no2)c(Br)c1
  /, i
O=C(NCCCN1CCOCC1)C(C(=O)c1ccccc1)n1ccccc1=O (configuration not stated)
  >57, i
Cn1cccc1C(=O)NC(=O)CSc1nc2ccccc2s1
  >57, i
CCC(C)(C)n1nnnc1C(c1ccc(O)c(OC)c1)N1CCN(c2nc3ccccc3s2)CC1 (configuration not stated)
  >57, i
Cc1cc2c(=O)n(C)c(SCC(=O)c3cc4ccccc4o3)nc2s1
  >57, i
CN1CCN(c2ccccc2NC(=O)Cc2cn(C)c3ccccc23)CC1
  /, i
O=C(COC(=O)Cc1cn2ccsc2n1)NCc1ccc2c(c1)OCO2
  >57, i
O=C(NCCCn1ccnc1)c1noc2c1CCCC2
  >57, i
COC(=O)c1ccc2c(=O)n(CCN3CCOCC3)c(SCC(=O)c3ccccc3)nc2c1
  >57, i
CC(C)c1nnc(NC(=O)C2CCCCC2)s1
  /, i
C[N+](C)(C)CC(=O)N/N=C\c1ccncc1
  /, i
Clc1ccccc1OCc1nc(-c2ccccn2)no1
  i, i
COc1cccc(C(=O)CN2C(=O)C(C)(C)Oc3ccc(C(=O)N4CCCCCC4)cc32)c1
  >57, i
C#CCNc1c(C)c(C)nc2ncnn12
  >57, i
CCC(=O)N1c2ccc(S(=O)(=O)N(CCO)Cc3ccccc3)cc2CC1C (configuration not stated)
  >57, i
COc1ccc(C(c2sc3nc(C)nn3c2O)N2CC(C)OC(C)C2)cc1OC (configuration not stated)
  /, i
CC1(C)C(=O)Nc2ccccc2N1C(=O)COc1ccc(S(=O)(=O)N2CCOCC2)cc1Cl
  >57, i
COc1ccc(Nc2ccccc2)c(C)c1
  >57, i
COc1ccc2[nH]cc(CCNc3ncnc4ccc(-c5ccccc5C#N)cc34)c2c1
  /, i
CCNC(=O)Nn1c(C)nnc1C
  >26, /
O=C(CC1=NC2(CCCC2)Cc2ccccc21)N1CCOCC1
  >57, i
CCOc1ccc(OCC)c(NC(=O)CCn2c(=O)oc3ccccc32)c1
  /, i
COc1cccc(Cn2c(=O)cnc3cncnc32)c1
  /, i
COCCn1c(SCC(=O)N2CCCCC2)nc2cccnc21
  >57, i
CCc1cccc(CC)c1NC(=O)CN1CCN(c2ccccc2)CC1
  >57, i
Cc1cc(N2CCOCC2)nc2ccc(NC(=O)CCC(=O)N3CCCC(C)C3)cc12 (configuration not stated)
  /, i
COc1ccc2[nH]cc(CCNc3ncnc4ccc(-c5ccccc5CN(C)C)cc34)c2c1
  /, i
COc1ccc(-c2nc(=S)[nH][nH]2)cc1
  /, i
CCC(c1nnc(SCC(=O)N2CC(=O)Nc3ccccc32)n1Cc1ccccc1)N(C)C (configuration not stated)
  >57, i
CN1CCN(Cc2nc3c(c(=O)[nH]c(=O)n3C)n2CCc2ccccc2)CC1
  /, i
COCCn1c(=O)[nH]c2cc(C(=O)NCc3cccnc3)ccc2c1=O
  >57, i
O=C(CSc1ccccc1)NCCCN1CCOCC1
  >57, i
C=CC(O)Cc1c(C)n[nH]c1C (configuration not stated)
  >26, /
CCn1cc(S(=O)(=O)CC(=O)Nc2cc(C)on2)c2ccccc21
  >57, i
Cc1ccc(NC(=O)CSC(N)=O)cc1Cl
  /, i
Cn1c(CCNC(=O)c2ccccc2)nc2cc(NC(=O)c3ccco3)ccc21
  /, i
Cc1ccc(CCNC(=O)Cn2cccc2)cc1
  >57, i
CC(C)COC(=O)C1[C@H]2C(=O)N(Cc3cccs3)C[C@]23C=C[C@H]1O3 (some centres not stated)
  >57, i
COc1ccc(C2N(c3ccccn3)C(=O)C3CCCN32)c(OC)c1 (configuration not stated)
  >57, i
CC(C)OCCCNc1ncnc2c1[nH]c1ccc(F)cc12
  /, i
CC(C)Cc1nc(S(=O)(=O)c2ccc(Cl)cc2)c(N2CCOCC2)o1
  >57, i
CCOC(=O)N1CCC(NC(=O)c2ccc(CS(=O)(=O)c3ccccc3C)o2)CC1
  /, i
CC1(C)CCC(NC(=O)[C@H](N)CCC(=O)O)CC1
  /, i
CCOc1ccccc1NC(=O)CCN1CCN(S(=O)(=O)c2ccc(OC)cc2)CC1
  >57, i
CCOC(=O)Cn1nnnc1C(CC)N(Cc1cc2ccc(C)cc2[nH]c1=O)C1CCCC1 (configuration not stated)
  >57, i
COc1ccc(OC)c(-c2nnc(-c3ccc(C)o3)o2)c1
  /, i
Cc1nc(C)c(C(=O)Nc2ccccc2-c2ccccc2)o1
  >57, i
Cc1ccc2cc(CCNC(=O)CC(C)(C)C)c(=O)[nH]c2c1C
  /, i
O=C(Cn1c(=O)oc2cc(S(=O)(=O)N3CCCC3)ccc21)NCc1ccccn1
  /, i

The list goes on.
Below each compound – PK Bst, YjeE inh
O=C(CSc1nnc(-c2ccc(Br)o2)n1Cc1ccccc1)c1ccccc1F
  >57, i
CCOC(=O)CSc1nnc(-c2ccco2)n1-c1ccccc1
  >57, i
COc1cccc(-n2c(Cc3cc(=O)[nH]c(=O)[nH]3)nnc2SCC(=O)NC2CCCCC2)c1
  /, i
Cc1cc(C)cc(N2C(=O)CC(N3CCOCC3)C2=O)c1 (configuration not stated)
  /, i
CCOC(=O)c1c(-c2ccccc2)csc1NC(=O)c1nn(CC)cc1Br
  >57, i
Cn1c(NC(=O)c2ccco2)c(-c2ccccc2)c(=O)c2ccccc21
  >57, i
Cc1cccc(-n2nnnc2SCC(=O)c2cc(C)n(Cc3ccco3)c2C)c1
  >57, i
COc1ccc(C)cc1NC(=O)CN(Cc1nnc(-c2ccc(Cl)cc2)o1)C1CCCC1
  4.7*, i
CCc1nnc(NC(=O)OCc2ccccc2)s1
  >57, i
Cc1ccc(C)c(C2=CSC3=NCCN23)c1
  >57, i
O=C(Oc1ccc2cccc(OC(=O)N3CCOCC3)c2c1)N1CCOCC1
  >57, i
CCOC(=O)c1sc(NC(=O)c2ccco2)nc1C
  /, i
CCN(CC)CCCNC(=O)c1ccccc1C
  /, i
CCOC(=O)c1c(NC(=O)CN2CCOCC2)sc2c1CCCC2
  >57, i
Cc1cccnc1Nc1nc(-c2ccc(O)cc2O)cs1
  1.7*, i
CSc1ccccc1NC(=O)c1cnccn1
  >57, i
Nn1c(Nc2ccccc2)nc2sc3c(c2c1=O)CCC3
  /, i
CCn1ncc(Br)c1C(=O)Nc1cc(C(=O)OC)ccc1C(=O)OC
  >57, i
O=S(=O)(c1ccc2c(c1)OCCO2)N1CCN(Cc2ccc3c(c2)OCO3)CC1
  >57, i
O=C(O)C1CCCCC1C(=O)NCCCN1CCOCC1 (configuration not stated)
  >57, i
CN(C)CCSc1nnc(-c2ccccc2)o1
  >57, i
O=C(NCCCNCc1ccccc1)/C(=N\O)c1ccccc1
  >26, /
CC1=CC(=O)CC(C)(C)[C@]1(O)/C=C\C(C)=C\C(=O)O
  /, i
O=C(NCCCn1ccnc1)C(Cc1ccccc1)N1C(=O)c2ccccc2C1=O (configuration not stated)
  >26, /
COc1ccc2oc(=O)c(C(=O)N3CCCc4ccccc43)cc2c1
  >57, i
COC(=O)C(CCCCN1C(=O)C2C3C=CC(C3)C2C1=O)N1C(=O)C2C3C=CC(C3)C2C1=O (configuration not stated)
  >57, i
C[C@@H](C(=O)N[C@@H](CO)Cc1ccccc1)[C@@H]1C[C@@]1(C)[C@@H](NC(=O)OCc1ccccc1)c1ccccc1
  /, i
Cc1cnc(CNc2ncncc2-c2ccc(C(=O)N(C)C)cc2)cn1
  /, i
N#Cc1nc(Cc2cccc3ccccc23)oc1N1CCOCC1
  >57, i
Cc1cc(C(=O)CSc2nnc(-c3ccncc3)n2-c2ccccc2)c(C)n1C
  >57, i
O=C(CSc1nnc(-c2ccc(OC(F)F)cc2)o1)N1CCOCC1
  >11, i
CCOc1ccc(-c2cc3nc(C4CCN(C(=O)OC(C)(C)C)CC4)c(C(=O)O)cn3n2)cc1
  /, i
CC1CCc2sc3nc(NCc4ccco4)n4ncnc4c3c2C1 (configuration not stated)
  i, i
COc1ccc(CN2CCN(C(=O)C3CC(=O)N(C4CCCCCC4)C3)CC2)c(OC)c1OC (configuration not stated)
  >57, i
O=c1oc2c3c4c(cc2c2c1CCC2)OCCN4CCC3
  /, i
CC(C)NC(=O)N1CCCC2(CCN(C(=O)c3cc(C(F)(F)F)cc(C(F)(F)F)c3)CC2)C1
  /, i
N#Cc1ccc(CSc2nnc(Nc3ccccc3)s2)cc1
  >57, i
Clc1cccc(Cl)c1Cn1nnc(-c2cccs2)n1
  /, i
COC(=O)c1cc2c(=O)n3ccccc3nc2n(C)c1=N
  >57, i
c1ccc(-n2c(SCc3ccncc3)nnc2-c2ccco2)cc1
  >57, i
CC1(C)CC(=O)N(CC(=O)N2CCN(c3ncccn3)CC2)c2ccccc2S1(=O)=O
  /, i
O=C(O)CNC(=O)c1ccccc1O
  /, i
CCOC(=O)N1CCC(NC(=O)c2cccc3c2C(=O)N(Cc2cccnc2)C3)CC1
  >57, i
Cc1cccc(C)c1OCc1nnc(SCC(=O)NCc2ccccc2)o1
  /, i
Cc1cccn2c(=O)c3cc(C(=O)NCCCN4CCOCC4)n(C)c3nc12
  /, i
COc1ccccc1NC(=O)CN(C)S(=O)(=O)c1ccc(F)cc1
  >57, i
Cn1cccc1Cc1nnc(SCC(=O)NCC2CCCO2)n1CCc1ccccc1 (configuration not stated)
  >57, i
COc1ccc(NS(=O)(=O)c2cc(C)ccc2C)cc1
  >11, i
Cc1ccc2[nH]c(=O)c(CN(CCCN3CCOCC3)C(=O)Nc3cccc(Cl)c3)cc2c1
  /, i
C=CCNc1nc(-c2ccc(O)c(C(N)=O)c2)cs1
  >11, /
Cc1cc(C(=O)CSc2nncs2)c(C)n1-c1c(C)n(C)n(-c2ccccc2)c1=O
  >57, i
COc1ccc(C(=O)CSc2nnc(-c3ccc(C)cc3)o2)cc1
  >57, i
CCn1cc(C(=O)NCC2CCCO2)c(=O)c2cc(S(=O)(=O)N(C)C)ccc21 (configuration not stated)
  /, i
COc1ccccc1CN1CC(C(=O)NCC2CCCO2)CC1=O (configuration not stated)
  >57, i
O=C1NC(=O)C(c2ccccc2)(c2ccccc2)N1
  >26, i
COc1ccc(C2(C(=O)NC(C)C)CCCC2)cc1OC
  >57, i
O=c1c2ccccc2c(C=NCCO)c(O)n1-c1ccccc1
  /, i
O=c1c(CCc2ccccc2)nc2cnc(N3CCNCC3)nc2n1Cc1cccs1
  /, i
Cc1nc2nc(-c3ccccc3)[nH]n2c(=O)c1Cc1ccccc1
  >57, i
COc1cccc2cc3c(=O)n(-c4ccccc4)nc-3oc12
  /, i

At a glance, part of the list above:
Below each compound – PK Bst, YjeE inh
O=c1c2ccccc2c(C=NCCO)c(O)n1-c1ccccc1
  /, i
O=c1c(CCc2ccccc2)nc2cnc(N3CCNCC3)nc2n1Cc1cccs1
  /, i
Cc1nc2nc(-c3ccccc3)[nH]n2c(=O)c1Cc1ccccc1
  >57, i
COc1cccc2cc3c(=O)n(-c4ccccc4)nc-3oc12
  /, i

Later entries.
Below each compound – PK Bst, YjeE inh
Cc1ccccc1CSCCNC(=O)CN(c1ccc2c(c1)OCO2)S(C)(=O)=O
  >57, i
CCCC(O)(CCN(C)C)c1ccc(OC)cc1 (configuration not stated)
  >57, i
O=C(O)COCc1nc2ccccc2[nH]1
  >57, i
O[C@@H](c1cc([C@@]23C[C@H]4CC[C@@H]2C[C@H](C4)C3)nc2c(Cl)cc(Cl)cc12)[C@@H]1CCCCN1
  /, i
CC(c1ccccc1)n1cc(C(=O)NCc2cccnc2)nn1 (configuration not stated)
  >57, i
COc1ccc(-c2nc3ncccn3c2Nc2ccc3c(c2)OCCO3)cc1
  >57, i
CCN(CC)C(=O)CSc1nnc(-c2cccc(OC)c2)o1
  >57, i
CC(=O)Nc1nonc1NC(=O)CSc1ccccn1
  >57, i
Cc1ccc(S(=O)(=O)N2CCC(C(=O)Nc3nnc(-c4ccco4)s3)CC2)cc1
  >57, i
O=C(c1cc2nc(-c3ccco3)cc(C(F)(F)F)n2n1)N1CCN(c2ccccc2)CC1
  /, i
Cc1cc(C)cc(N2C(=O)C3C4C=CC(C4)C3C2=O)c1 (configuration not stated)
  >57, i
O=C(COC(=O)CCc1c[nH]c(=O)[nH]1)Nc1cccc(Cl)c1
  >57, i
Cc1c(OCc2nn[nH]n2)ccc2c3c(c(=O)oc12)CCCC3
  /, i

Assay outcomes (PubChem)

These rows are one share of the data; count on the stated rates, not on these rows.
